Source: PubChem BioAssay
Beta cell apopt: beta cell apoptosis inhibition; INS-1E cytokine-induced death, ATP luminescence, 48 h; percent of positive-control rescue, neutral wells zero; protection from apoptosis, % (concentration not given with the values); 300,000 compounds, 0.8% hits; AID 435005;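 active = all replicates at 75% or more, or half of them and the mean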;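 note: 0% = cytokine-treated negative control wells and 100% = positive control rescue; higher means more ATP so stronger rescue from cytokine killing; wells of about 40 µL received 100 nL stock; the first replicate is given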
AF4-AF9 inh: blocks AF4 peptide binding to human AF9 | AID 651704 | 350,000 compounds, 0.47% hits | inhibition, % at 10 µM | AlphaScreen, biotin-AF4 peptide binding to FLAG-AF9;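 active = every replicate reaching a set inhibition limit, whatever the replicate mean, cut at about 25% in these data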;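 note: 0% = plate neutral control median and 100% = total signal loss; the record names both 10 and 1 µM as test concentration; the first replicate is given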
Target sequence (P42568 whole entry, looked up): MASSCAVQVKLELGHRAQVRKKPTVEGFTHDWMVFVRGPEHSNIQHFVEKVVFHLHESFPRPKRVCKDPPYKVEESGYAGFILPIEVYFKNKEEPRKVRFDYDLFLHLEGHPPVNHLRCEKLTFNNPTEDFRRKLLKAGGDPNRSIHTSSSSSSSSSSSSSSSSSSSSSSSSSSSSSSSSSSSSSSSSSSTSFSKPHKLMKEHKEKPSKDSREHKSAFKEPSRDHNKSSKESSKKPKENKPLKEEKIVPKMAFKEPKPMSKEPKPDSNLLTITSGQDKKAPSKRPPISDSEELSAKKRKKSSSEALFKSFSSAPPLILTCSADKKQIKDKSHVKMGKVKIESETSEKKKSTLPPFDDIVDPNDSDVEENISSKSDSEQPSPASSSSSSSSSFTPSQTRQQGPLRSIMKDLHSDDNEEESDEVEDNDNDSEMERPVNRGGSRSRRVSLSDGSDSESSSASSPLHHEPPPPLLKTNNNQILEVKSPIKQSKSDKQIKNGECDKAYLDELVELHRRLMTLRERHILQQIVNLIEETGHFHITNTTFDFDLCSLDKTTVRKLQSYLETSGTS
FGF22 binding: shifts melting point of recombinant human FGF22; Q9HCT0; recombinant FGF22 thermal shift, SYPRO orange fluorescence; percent of sucrose octasulfate shift, DMSO zero; calls only at 9.99 µM; 340,000 compounds, 1.5% hits; AID 651658;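 active = melting point raised past a set limit in the mean and every replicate; three in four hits are not shown here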
Target sequence (Q9HCT0 whole entry, looked up): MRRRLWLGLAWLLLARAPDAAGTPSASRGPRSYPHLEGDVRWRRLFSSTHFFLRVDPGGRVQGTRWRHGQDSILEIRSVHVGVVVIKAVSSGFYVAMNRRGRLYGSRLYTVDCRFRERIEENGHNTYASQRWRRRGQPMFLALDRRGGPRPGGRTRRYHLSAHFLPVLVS
Ecoli growth: E. coli growth inhibition. Escherichia coli growth, OD600, 23 h; hits give low values. OD600 absorbance (test concentration not listed). 330,000 compounds, 0.21% hits. AID 1053175;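 active = OD600 absorbance below the run mean of sample wells minus 3.6 SD, in any replicate, cut at about 0.56 in these data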;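 note: stock transfer was 300 nL into about 60 µL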
UCH37 inh: blocks the human deubiquitinase UCH37; Q9Y5K5; purified proteasome/UCH37, Ub-AMC cleavage fluorescence; inhibition, % (test concentration not listed); 330,000 compounds, 0.33% hits;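 active = mean of two replicates above 20%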;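 note: 0% = compound-free wells with enzyme and 100% = wells lacking proteasome; stock transfer was 100 nL into about 20 µL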
Target sequence (Q9Y5K5 whole entry, looked up): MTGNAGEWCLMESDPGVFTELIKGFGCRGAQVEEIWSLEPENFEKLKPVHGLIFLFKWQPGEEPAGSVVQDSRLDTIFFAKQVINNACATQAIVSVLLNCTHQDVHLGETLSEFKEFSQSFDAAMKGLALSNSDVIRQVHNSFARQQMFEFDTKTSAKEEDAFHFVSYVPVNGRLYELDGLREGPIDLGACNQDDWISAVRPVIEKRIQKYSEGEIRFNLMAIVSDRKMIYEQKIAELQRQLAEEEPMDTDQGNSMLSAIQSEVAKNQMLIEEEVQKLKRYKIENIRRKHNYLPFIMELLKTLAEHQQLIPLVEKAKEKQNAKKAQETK
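Assay system: Proteasome-bound UCH37. Buffer or medium: pH 7.4 Tris-HCl (50 mM) with ovalbumin, ATP-MgCl2, DTT. Incubation: 30 min preincubation with enzyme, 25 min cleavage at room temperature. Measured by: fluorescence, ex 355 nm, em 460 nm. Read-out basis: percent inhibition. Control set: wells without proteasome as full block, compound-free enzyme plus substrate as uninhibited.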
Ecoli rRNA inh: inhibitors of bacterial rRNA selective over humanized ribosomes | E. coli WT GFP vs humanized-ribosome RFP mutants, fluorescence, 24 h; hits give low values; DMSO median 0, no signal -100 | GFP signal change (wild-type ribosome), % (no concentration beside the values) | 350,000 compounds, 1.6% hits;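 active = significant combined selectivity score with lowered wild-type GFP, culture density cut under 30%, mutant RFP and density less affected; inactive = any of these conditions unmet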; note: one replicate is shown; some compounds called inactive have numbers as strong as hits
T cruzi inh: blocks replication of Trypanosoma cruzi; 300,000 compounds, 1.4% hits; T. cruzi beta-gal in NIH3T3, luminescence, 90 h; inhibition, % (no concentration beside the values);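 active = mean inhibition across valid replicates above about 55%, limit read from the data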;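 note: signal also drops with host cell toxicity which is not excluded here; 0% = plate median of DMSO wells and 100% = zero luminescence signal; higher percent means less beta-gal luminescence so fewer parasites; stock transfer was 50 nL into about 50 µL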
A1 inh: inhibitors of the anti-apoptotic protein A1, read as caspase activation; MEF A1-2A-BIM cells, Caspase-Glo 3/7 luminescence, 3 h; percent of clofoctol response, vehicle zero; caspase activation, % (test concentration not listed); 330,000 compounds, 0.066% hits;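 active = over half of replicate activation scores above 10%, or exactly half above 10 with the replicate mean above 10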;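 note: wells of about 30 µL received 50 nL stock; many hits fall short of the cut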
Ecoli rRNA inh OD600: second read-out of Ecoli rRNA inh, no call of its own (marks repeat the call); OD600 change, %; measured here: OD600 growth;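 optical density of the mix in the first replicate; 0 = DMSO median and -100 = no signal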
Ecoli rRNA inh RFP: further read-out of Ecoli rRNA inh, marked with its call; RFP signal change, %; measured here: RFP humanized mutant strains;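 first replicate; 0 = DMSO median and -100 = no signal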
Active calls of the source: *; i = inactive; x = not tested or not shown. This is a subset. The share of hits here may be higher or lower than overall.

SMILES | Beta cell apopt | AF4-AF9 inh | FGF22 binding | Ecoli growth | UCH37 inh | Ecoli rRNA inh | Ecoli rRNA inh OD600 | Ecoli rRNA inh RFP | T cruzi inh | A1 inh
O=C(OCC(=O)N1CCCc2ccccc21)c1cc(Br)ccc1O | -7 | 0.5 | i | 0.71 | -1.5 | 12 | 6 | 0.6 | -14 | -0.5
COc1ccc(C(=O)OCc2nnc(-c3ccccc3)o2)cc1S(=O)(=O)N1CCOCC1 | -4 | -2.4 | i | 0.67 | 4.5 | 0 | -2 | 0.5 | -5 | -1.0
Nc1nc(-c2cccnc2)nn1C(=O)CCc1ccccc1 | -5 | x | x | 0.73 | 1.0 | x | x | x | -8 | 0.0
COc1ccc(OC)c(C(=O)CSc2nc3cccnc3n2C)c1 | -1 | x | x | 0.72 | 0.5 | x | x | x | 5 | 0.1
O=C(CSc1ncn[nH]1)NNC(=O)c1ccccc1 | -16 | -14 | i | 0.7 | 3.9 | 10 | 16 | -0.2 | -8 | -0.2
CCC(C)CCN1C(Nc2ccccc2)=NC[C@@H]1C (some centres undefined) | 1 | -5.0 | i | x | 1.8 | 15 | -2 | 14 | -7 | 0.0
Cc1ccc(C(=O)N/C(=C\c2ccccc2)C(=O)NCC2CCCO2)cc1 (centres undefined) | 3 | x | x | 0.69 | 1.1 | x | x | x | -5 | 0.3
C=CC[C@@H](CC(=O)N[C@H](CO)Cc1ccccc1)C(=O)NCCOC(=O)[C@@H](CC=C)CC(=O)OC(C)(C)C | 5 | 0.1 | i | x | 0.6 | 0 | -5 | 0.5 | x | 0.9
COc1ccc(S(=O)(=O)N2CCN(c3ccc(F)cc3)CC2)cc1OC | 2 | 5.1 | i | 0.63 | 5.7 | 12 | 12 | 1.7 | 3 | 0.0
Cc1nn(S(=O)(=O)c2cccc([N+](=O)[O-])c2)c(C)c1S(=O)(=O)N1CCOCC1 | -2 | -1.1 | i | 0.69 | 1.9 | 0 | 10 | -3.3 | -14 | -0.2
CCCCCCC(C)n1[nH]c(=O)cc1N (centres undefined) | -9 | 7.2 | i | 0.63 | 1.7 | -12 | -19 | 11 | 8 | 0.0
O=C(CSc1nc2ccccc2o1)N1N=C(c2cccs2)CC1c1ccc(F)cc1 (centres undefined) | 0 | x | x | 0.72 | -37 | x | x | x | 40 | -0.4
CCOC(=O)C1=C(N)OC2=C(C(=O)CC(C)(C)C2)C1c1cc(CSc2nnnn2C)cs1 (centres undefined) | -2 | 1.4 | i | 0.67 | 2.8 | -3 | 8 | -3.1 | -8 | 0.0
C[C@H](NC(=O)c1nc[nH]c1C(=O)OCc1ccccc1)c1ccccc1 | -4 | -1.8 | i | 0.78 | 3.9 | -1 | -9 | -0.6 | x | -0.2
CC(=O)Nc1ccc(NC(=O)C2CCC(CNS(=O)(=O)c3cccc4nsnc34)CC2)cc1 (centres undefined) | -4 | -1.5 | i | 0.62 | 0.2 | 10 | 13 | -6.0 | 5 | 0.4
COc1ccccc1CNC(=O)c1ccccc1C(=O)NC(C)(C)C(=O)NCc1ccccc1OC | 2 | -9.4 | i | 0.64 | 0.9 | 3 | 13 | -2.0 | -6 | 0.0
Cc1cc(C)n2nc(S(=O)(=O)N(CC(C)C)CC(C)C)nc2n1 | -6 | 2.1 | i | 0.76 | 4.0 | 1 | 0 | -6.3 | -7 | 0.3
CCCCN(CCCC)CC(O)COc1ccccc1Br (centres undefined) | 0 | -2.3 | i | 0.68 | 5.5 | x | x | x | -16 | -0.4
c1ccc(C2=NOC(c3nnc(-c4ccccc4)o3)C2)cc1 (centres undefined) | -19 | -5.1 | i | 0.65 | 33* | -1 | 0 | -4.0 | 5 | 1.1
Cc1c(C(=O)N2CCCCC2)oc2ccc(Br)cc12 | -6 | -9.1 | i | 0.69 | 2.8 | -16 | -22 | 2.7 | -1 | 0.0
CC1(C)Cc2nc3oc4c(NCc5ccccc5)ncnc4c3cc2CO1 | 8 | -1.1 | x | 0.7 | -58 | x | x | x | 13 | 0.0
CC1(C)CC(=O)C2=C(C1)NC(=O)NC2c1ccc(Cl)cc1 (centres undefined) | -5 | 1.5 | i | 0.67 | -1.3 | 4 | -4 | -1.2 | -1 | 0.4
COc1ccc(N(Cc2ccccc2)C(=O)CSc2nnc(Cn3nnc4ccccc43)o2)cc1 | 7 | x | x | 0.71 | 1.9 | x | x | x | 20 | 0.3
CC(C)(C)NC(=O)[C@H]1CC[C@H]2[C@@H]3CC[C@H]4NC(=O)C=C[C@]4(C)[C@H]3CC[C@]12C | -4 | -6.1 | i | x | 3.9 | -9 | -18 | -1.5 | 5 | 2.2
CC(=O)Nc1ccc(-c2nnc(SCc3c(C)cc(C)cc3C)n2C)cc1 | -2 | x | x | 0.68 | 2.8 | x | x | x | 22 | -0.2

9 entries from above, with values under each structure.
The line under a structure holds: Beta cell apopt | AF4-AF9 inh | FGF22 binding | Ecoli growth | UCH37 inh | Ecoli rRNA inh | Ecoli rRNA inh OD600 | Ecoli rRNA inh RFP | T cruzi inh | A1 inh
Cc1cc(C)n2nc(S(=O)(=O)N(CC(C)C)CC(C)C)nc2n1
  -6 | 2.1 | i | 0.76 | 4.0 | 1 | 0 | -6.3 | -7 | 0.3
CCCCN(CCCC)CC(O)COc1ccccc1Br (centres undefined)
  0 | -2.3 | i | 0.68 | 5.5 | x | x | x | -16 | -0.4
c1ccc(C2=NOC(c3nnc(-c4ccccc4)o3)C2)cc1 (centres undefined)
  -19 | -5.1 | i | 0.65 | 33* | -1 | 0 | -4.0 | 5 | 1.1
Cc1c(C(=O)N2CCCCC2)oc2ccc(Br)cc12
  -6 | -9.1 | i | 0.69 | 2.8 | -16 | -22 | 2.7 | -1 | 0.0
CC1(C)Cc2nc3oc4c(NCc5ccccc5)ncnc4c3cc2CO1
  8 | -1.1 | x | 0.7 | -58 | x | x | x | 13 | 0.0
CC1(C)CC(=O)C2=C(C1)NC(=O)NC2c1ccc(Cl)cc1 (centres undefined)
  -5 | 1.5 | i | 0.67 | -1.3 | 4 | -4 | -1.2 | -1 | 0.4
COc1ccc(N(Cc2ccccc2)C(=O)CSc2nnc(Cn3nnc4ccccc43)o2)cc1
  7 | x | x | 0.71 | 1.9 | x | x | x | 20 | 0.3
CC(C)(C)NC(=O)[C@H]1CC[C@H]2[C@@H]3CC[C@H]4NC(=O)C=C[C@]4(C)[C@H]3CC[C@]12C
  -4 | -6.1 | i | x | 3.9 | -9 | -18 | -1.5 | 5 | 2.2
CC(=O)Nc1ccc(-c2nnc(SCc3c(C)cc(C)cc3C)n2C)cc1
  -2 | x | x | 0.68 | 2.8 | x | x | x | 22 | -0.2

(continued)
SMILES | Beta cell apopt | AF4-AF9 inh | FGF22 binding | Ecoli growth | UCH37 inh | Ecoli rRNA inh | Ecoli rRNA inh OD600 | Ecoli rRNA inh RFP | T cruzi inh | A1 inh
O=C(NCc1ccccn1)Nc1cc(Cl)ccc1Cl | 1 | -0.9 | i | 0.68 | 5.9 | 6 | 1 | 2.6 | -6 | 1.1
O=C(Nc1cccc(NC(=O)c2ccc([N+](=O)[O-])o2)c1)c1ccco1 | -3 | -0.4 | i | 0.46* | 7.9 | -58 | -69 | -11 | 21 | 0.0
c1ccc2c(c1)Cc1ccccc1O2 | -2 | -1.9 | i | 0.68 | -0.5 | x | x | x | x | -0.9
COc1ccccc1C(=O)Nc1ccc2c(c1)CCCN2C(=O)c1cccs1 | 23 | 3.5 | i | x | x | -19 | -38 | -1.2 | 26 | -5.6
Cc1cccc(N=C2NC(=O)/C(=C\c3cccs3)S2)c1 | -13 | 0.2 | i | 0.7 | 3.9 | -55 | -77 | -12 | 6 | -1.7
CC1(c2cccc(Br)c2)NC(=O)N(CC(=O)N2CCc3ccccc32)C1=O (centres undefined) | x | -1.4 | i | 0.66 | 1.8 | -16 | -21 | -1.4 | x | x
CC(=O)c1ccc(NC(=O)C2C3C=CC(C3=C(c3ccccc3)c3ccccc3)C2C(=O)O)cc1 (centres undefined) | -10 | -4.2 | i | 0.68 | 5.1 | 9 | -2 | 20 | 11 | -0.4
COc1ccc(C(CC(=O)O)NC(=O)Nc2ccccc2)cc1OC (centres undefined) | 2 | -0.6 | i | 0.7 | -0.1 | 14 | 4 | 0.2 | -8 | -0.9
COc1ccc(C(=O)C2CCCN(C/C=C/c3ccccc3OC)C2)c(OC)c1 (centres undefined) | -4 | 6.8 | i | 0.69 | 1.2 | -11 | -18 | -2.8 | 35 | -0.4
COC(=O)C1=C(C)NC(C)=C(C(=O)OC)C1c1ccc(-c2cccc(Cl)c2Cl)o1 | 4 | x | x | 0.67 | -47 | x | x | x | 27 | 1.7
O=C(Cc1ccccc1)NCC(=O)OCc1ccc([N+](=O)[O-])cc1 | x | x | x | 0.67 | 5.4 | x | x | x | -7 | 0.7
O=C(OCC(=O)N1CCCCC1)c1c[nH]c2ccccc12 | -6 | -0.2 | i | 0.63 | 1.4 | 12 | 7 | 2.2 | x | -1.1
N#Cc1cn(-c2ccccc2)nc1-c1cc2ccccc2oc1=O | -3 | x | x | 0.74 | -57 | x | x | x | 13 | -0.4
CCOC(=O)COc1ccc2c(=O)cc(-c3ccccc3)oc2c1 | -8 | 0.4 | i | 0.66 | 4.4 | 8 | 13 | 2.3 | -8 | -0.4
COc1ccc(C(=O)c2ccc([N+](=O)[O-])cc2Cl)cc1 | 2 | 16 | i | 0.64 | 3.0 | -8 | -6 | -3.6 | 60* | -0.7
CC(C)Oc1ccc(CNC(=O)Cn2ccc3cc(S(=O)(=O)N4CCCC4)ccc32)cc1 | 1 | 1.4 | i | 0.73 | -1.7 | 3 | 11 | -1.7 | 25 | -0.3
CCOC(=O)[C@H]1[C@H]2COc3ccc(OC)cc3[C@@H]2N2C(=O)CN(Cc3ccco3)C(=O)[C@@]12C | 4 | -2.3 | i | x | 2.9 | 2 | 1 | -2.2 | x | 0.2
Cc1[nH]c2ccc(F)cc2c1CCN(Cc1cccnc1)C(=S)Nc1ccc(F)cc1 | -7 | 6.4 | i | 0.64 | 0.0 | -52 | -68 | -26 | 61* | -0.5
COc1ccc(Br)cc1C(=O)NC(=S)Nc1ccc(CN2CCOCC2)cc1 | 10 | 2.2 | i | 0.61 | 1.3 | 0 | -6 | 2.7 | 6 | 0.9
COCCNC(=O)C(c1cccnc1)N(Cc1ccccc1)C(=O)Cn1nnc2ccccc21 (centres undefined) | -4 | -1.4 | i | 0.67 | 2.5 | 20 | 12 | -0.4 | 4 | -2.3
CC1CCC(NC(=O)CN2CCC(n3nnc4cc(F)ccc43)CC2)CC1 (centres undefined) | -1 | x | x | 0.66 | -0.7 | x | x | x | 7 | 1.5
Cc1cc(C)c(-c2csc(NC(=O)c3cc([N+](=O)[O-])ccc3N3CCOCC3)n2)c(C)c1 | 7 | x | x | 0.73 | 2.8 | x | x | x | 66* | -0.5
C/C(Sc1nnc(Cc2ccccc2)o1)=C(/O)c1ccccc1 | 4 | -2.1 | i | 0.67 | 1.5 | -6 | -6 | -2.1 | 2 | -0.7
CCOc1ccc(NC(=O)CN(C)C(=O)c2ccc3[nH]c4c(c3c2)CC(C)CC4)cc1OCC (centres undefined) | 6 | 13 | i | 0.69 | 1.3 | 0 | -4 | 0.2 | 17 | 0.0
